rRNA inh HTS – inhibits bacterial ribosomal RNA function over humanized ribosomes | E. coli WT GFP vs humanized-ribosome RFP mutants, fluorescence, 24 h; active compounds read low; DMSO median 0, no signal -100 | AID 720706 | GFP signal change (wild-type ribosome), % (test concentration not listed) | 350,000 compounds, 1.6% hits;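 active = significant combined selectivity score with lowered wild-type GFP, culture density cut under 30%, mutant RFP and density less affected; inactive = any of these conditions unmet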; note: one replicate is shown; some compounds called inactive have numbers as strong as hits
Beta cell apopt – beta cell apoptosis inhibition | AID 435005 | 300,000 compounds, 0.8% hits | protection from apoptosis, % (no concentration beside the values) | INS-1E cytokine-induced death, ATP luminescence, 48 h; percent of positive-control rescue, neutral wells zero;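 active = all replicates at 75% or more, or half of them and the mean; inconclusive = half reach 75% but not the mean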;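 note: 0% = cytokine-treated negative control wells and 100% = positive control rescue; higher means more ATP so stronger rescue from cytokine killing; wells of about 40 µL received 100 nL stock; the first replicate is given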
Vif TR-FRET – HIV-1 Vif–A3G interaction blockers – biochemical, TR-FRET, GST-Vif 1-94, biotin-A3G peptide, dose response retest, primary screen (AID 1117319) | TR-FRET GST-Vif / biotin-A3G peptide binding; higher % means a stronger effect; test concentration not given here; strong numbers were not always called active | inhibition, %; hits with a dose series show IC50 in µM | 260,000 compounds, 0.57% hits;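 active = above the screen mean plus three standard deviations and confirmed in dose response; inconclusive = results disagree or hit not tested in dose response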;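 note: Vif residues 1-94 fused to GST binding biotinylated APOBEC3G peptide 110-148; 0% = full assay without inhibitor and 100% = GST in place of GST-Vif; retest series ran down from 100 µM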
A1 inh – inhibitors of the anti-apoptotic protein A1, read as caspase activation. MEF A1-2A-BIM cells, Caspase-Glo 3/7 luminescence, 3 h; percent of clofoctol response, vehicle zero. AID 2462. 330,000 compounds, 0.066% hits. caspase activation, % (concentration not given with the values);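 active = over half of replicate activation scores above 10%, or exactly half above 10 with the replicate mean above 10; inconclusive = replicate mean below 10 yet half the replicates above 10; inactive = over half of replicates below 10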;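 note: wells of about 30 µL received 50 nL stock; many hits fall short of the cut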
T cruzi inh – blocks replication of Trypanosoma cruzi; T. cruzi beta-gal in NIH3T3, luminescence, 90 h; inhibition, % (concentration not given with the values); 300,000 compounds, 1.4% hits; AID 1885;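 active = mean inhibition across valid replicates above about 55%, limit read from the data; inconclusive = mean below that limit but half or more replicates reach it; inactive = mean below it, under half of replicates reach it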;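 note: signal also drops with host cell toxicity which is not excluded here; 0% = plate median of DMSO wells and 100% = zero luminescence signal; higher percent means less beta-gal luminescence so fewer parasites; stock transfer was 50 nL into about 50 µL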
RanGTP-Imp inh – inhibitors of RanGTP-importin-beta interaction, primary screen, biochemical, FRET, CFP-Ran, YFP-importin-beta, homogeneous; 300,000 compounds, 1.1% hits; cell-free CFP-Ran/YFP-importin-beta FRET ratio; AID 2216; inhibition, % (no concentration beside the values);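 active = most replicates above 15%; inconclusive = exactly half above 15%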;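 note: 0% = DMSO wells and 100% = Ran loaded with GDP instead of GTP; wells of about 40 µL received 100 nL stock; the first replicate is given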
AF4-AF9 inh – MLL-AF4/AF9 protein interaction inhibition | AlphaScreen, biotin-AF4 peptide binding to FLAG-AF9 | inhibition, % at 10 µM | P42568 | 350,000 compounds, 0.47% hits;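 active = every replicate reaching a set inhibition limit, whatever the replicate mean, cut at about 25% in these data; inconclusive = mean inhibition reaches that limit but some replicates miss it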;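 note: 0% = plate neutral control median and 100% = total signal loss; the record names both 10 and 1 µM as test concentration; the first replicate is given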
Target sequence (P42568 whole entry, looked up): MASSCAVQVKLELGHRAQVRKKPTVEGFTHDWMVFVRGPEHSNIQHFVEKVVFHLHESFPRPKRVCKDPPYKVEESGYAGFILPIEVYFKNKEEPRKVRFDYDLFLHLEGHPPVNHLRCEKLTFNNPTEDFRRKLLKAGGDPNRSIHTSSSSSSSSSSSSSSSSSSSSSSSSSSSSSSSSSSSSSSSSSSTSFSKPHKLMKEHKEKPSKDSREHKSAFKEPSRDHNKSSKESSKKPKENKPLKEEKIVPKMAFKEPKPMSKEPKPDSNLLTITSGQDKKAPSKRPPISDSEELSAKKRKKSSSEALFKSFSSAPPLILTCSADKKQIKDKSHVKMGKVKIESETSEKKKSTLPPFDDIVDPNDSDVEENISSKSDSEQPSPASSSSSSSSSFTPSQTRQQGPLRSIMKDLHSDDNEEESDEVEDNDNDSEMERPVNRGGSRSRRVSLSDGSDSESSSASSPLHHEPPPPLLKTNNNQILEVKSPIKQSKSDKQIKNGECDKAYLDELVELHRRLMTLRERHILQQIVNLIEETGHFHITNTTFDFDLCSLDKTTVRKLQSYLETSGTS
Calb FLC – affects C. albicans growth with fluconazole | 300,000 compounds, 0.57% hits | growth inhibition, % (no concentration beside the values) | C. albicans CaCi-2 (fluconazole-resistant clinical isolate) + fluconazole, Alamar Blue growth, 48 h;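 active = most replicates above 75%; inconclusive = exactly half above 75%; inactive = most below 75%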;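 note: all wells also contain fluconazole at 8 µg/ml as a sub-toxic cotreatment; 0% = median of DMSO wells and 100% = median of geldanamycin control wells; wells of about 8 µL received 7.5 nL stock; the first replicate is given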
rRNA inh HTS OD600 – recorded beside rRNA inh HTS, whose call it bears; OD600 change, %; measured here: OD600 growth;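 optical density of the mix in the first replicate; 0 = DMSO median and -100 = no signal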
rRNA inh HTS RFP – recorded beside rRNA inh HTS, whose call it bears; RFP signal change, %; measured here: RFP humanized mutant strains;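 first replicate; 0 = DMSO median and -100 = no signal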
* hit, by the source's call; ? = inconclusive; / = no result given. These rows are one share of the data; count on the stated rates, not on these rows.

SMILES | rRNA inh HTS | rRNA inh HTS OD600 | rRNA inh HTS RFP | Beta cell apopt | Vif TR-FRET | A1 inh | T cruzi inh | RanGTP-Imp inh | AF4-AF9 inh | Calb FLC
CC(OC(=O)c1nsc(Cl)c1Cl)C(=O)NC(C)(C)C (stereo unspecified) | / | / | / | -2 | -1% | -1.2 | -12 | -3.9 | / | -12
N#Cc1c(-c2cccnc2)c2c([nH]c1=O)-c1ccccc1OC2 | 11 | 11 | 0.9 | -1 | / | 0.6 | -8 | 113* | -2.6 | 6
CCOc1ccc(NC(=O)NC23CC4CC(CC(C4)C2)C3)cc1 | / | / | / | 8 | / | 0.8 | -7 | 1.8 | 2.8 | 3
O=C(c1ccc(Cl)cc1)C1CCCN(Cc2cccn2-c2ccccn2)C1 (stereo unspecified) | -5 | -9 | -2.0 | 10 | -9% | 1.8 | 22 | -12 | 8.0 | 0
CCNC(=O)c1ccccc1NC(=O)c1cccc(S(=O)(=O)N2CCOCC2)c1 | / | / | / | -4 | -4% | 0.7 | 10 | 1.6 | / | 22
C[C@@H]1CC[C@@]2(O[C@@H](CCO)C[C@H](O)[C@H]2O)O1 | / | / | / | -4 | / | 1.0 | -12 | 1.4 | / | -1
CN(C)C(=O)C12CCC(C)(C(=O)C1Br)C2(C)C (stereo unspecified) | 18 | -6 | 1.8 | -5 | -15% | 1.1 | 9 | -3.2 | -2.1 | -1
Cc1ccccc1CSc1[nH]c(=O)ncc1C | -12 | -15 | -3.1 | 2 | / | 0.9 | 3 | 1.3 | 2.6 | 3
Oc1cccc(NC(=S)N=Nc2c(O)[nH]c3ccc(Br)cc23)c1 | -37* | -7.3* | -1.5* | 7 | 10% | -1.2 | 17 | -1.5 | 9.7 | 0
Cc1ccccc1NC(=S)NC(=O)Cc1ccc(Cl)cc1 | -32* | -2.9* | 1.0* | -4 | / | 0.1 | 3 | 2.3 | 7.2 | -19
CCCn1c(=O)c2[nH]c(C3CCCC3)nc2n(CCC)c1=O | / | / | / | -1 | 7% | 0.2 | -7 | -1.2 | 0.6 | /
CC(=O)c1cccc(NC(=O)CN2C(=O)c3ccccc3C2=O)c1 | 15 | 7 | 1.1 | 4 | -6% | 1.1 | -8 | -0.7 | -1.9 | -9
Cc1nn(-c2ccccn2)c2c1C(c1ccsc1)C1=C(CCCC1=O)N2 (stereo unspecified) | / | / | / | -4 | 1% | 0.6 | 30 | 0.0 | / | 17
O=C(CSc1nnc(NC(=O)c2c(F)cccc2F)s1)NCc1ccco1 | -1 | 5 | 0.3 | / | 10% | 0.5 | 0 | 1.1 | -6.6 | 2
CCC(C)NC(=O)CSc1nc2c(sc(=S)n2-c2cc(Cl)ccc2OC)c(=O)[nH]1 (stereo unspecified) | -5 | 10 | -0.1 | / | -2% | 0.1 | 1 | -2.1 | -1.9 | -18
COc1ccc(-c2c(NC(=O)C(C)C)n(C)c3ccccc3c2=O)cc1 | 11 | 5 | -4.9 | -5 | 4% | 0.5 | -2 | 1.7 | 7.4 | 19
Cc1cnccc1CN(C)C(=O)CC1C(=O)NCCN1CC1CCCCC1 (stereo unspecified) | 3 | 3 | 5.2 | -1 | -4% | 0.7 | -8 | -4.1 | -1.5 | -15
Cc1ccccc1NC(=O)c1c([N+](=O)[O-])c(C(C)(C)C)nn1C | / | / | / | 4 | / | -0.3 | 3 | 1.9 | / | -11
Cc1cc[n+](CC(=O)c2cc3ccccc3oc2=O)cc1 | 2 | 13 | 4.1 | -4 | 7% | -1.3 | -4 | 3.1 | -3.8 | -2
CC1CCN(Cc2c(C(=O)N/N=C/c3ccc(OC(C)C)cc3)nnn2-c2nonc2N)CC1 | 7 | 7 | 6.8 | 9 | / | 1.4 | 0 | 3.0 | -0.7 | 13
O=C(Cc1c[nH]c2ccccc12)NCc1ccccc1F | 6 | 1 | -9.6 | -5 | 2% | 0.3 | -12 | 1.4 | -2.3 | -5
COC(=O)COc1ccc(S(=O)(=O)NCc2ccco2)cc1Cl | / | / | / | -11 | 0% | -0.5 | -15 | 1.5 | / | 5
Cc1cc(=O)[nH]c(SCC(=O)/C=C2\N(C)c3ccccc3C2(C)C)n1 | / | / | / | 117* | 8% | 0.3 | 15 | 5.3 | / | -1
CCCn1ncc(/C=N/O)c1C | 10 | 4 | 2.1 | 2 | -3% | 0.0 | -12 | 0.6 | / | -13
COCCNS(=O)(=O)c1ccc2c(c1)C(=NO)c1cc(S(=O)(=O)NCCOC)ccc1-2 | -2 | 6 | 8.5 | -3 | -7% | 0.0 | 9 | 0.6 | -1.9 | -3
Cc1cc(/C=N/NC(=O)c2ccncc2)c(C)n1-c1cccc(C(F)(F)F)c1 | 1 | 2 | 4.3 | 6 | 6% | 0.8 | -1 | 1.4 | 7.4 | -13
c1nc(CCO[C@H]2CCCCO2)cc2cc3c(cc12)OCO3 | -5 | 3 | -3.3 | -2 | / | -8.6 | / | / | -1.1 | /
CCOc1ccc(-c2ccc(SCC(=O)N3CCOCC3)nn2)cc1 | 6 | 1 | 0.8 | -1 | 4% | -0.6 | -2 | 0.4 | 1.2 | 1
COc1ccc(OCC(=O)N2CCC3(CC2)CC(=O)c2ccccc2O3)cc1 | -2 | -4 | 0.2 | 0 | / | 0.4 | 3 | ? | 0.7 | -4
COC(=O)C1CCCN1S(=O)(=O)c1ccc2ccccc2c1 (stereo unspecified) | / | / | / | 7 | 42% | -0.1 | 8 | 0.9 | / | 21
COC(=O)c1ccc(-c2ncc[nH]2)cc1 | 18 | 10 | 2.5 | 1 | -5% | 0.4 | 4 | -2.2 | -2.9 | -7
O=C(CN1CCCc2ccccc21)N/N=C/c1ccc(O)cc1O | -15* | -12* | -5.0* | 51 | / | 0.5 | -4 | 4.5 | 7.6 | 7
O=C1C(Cl)=C(NCC2CCCO2)C(=O)N1c1ccccc1 (stereo unspecified) | / | / | / | 2 | 32% | -0.2 | -4 | -5.4 | / | -3
CN1CCN(NC(=O)c2cc(S(=O)(=O)N3CCOCC3)c(Cl)cc2Cl)CC1 | / | / | / | -1 | / | 1.0 | 14 | ? | / | -4
Cc1cc(=O)oc2c3c(cc(OCC(=O)NCC(=O)O)c12)OC(C)(C)CC3 | 8 | 7 | 1.4 | -7 | -1% | 0.7 | -3 | ? | -3.7 | 7
COc1ccccc1/C=N/NC(=O)CNC(=O)c1ccccc1 | 3 | 3 | -4.7 | -6 | 1% | 0.6 | 1 | 2.8 | 1.2 | 12
COc1ccc2nc(N3CCN(C(=O)c4ccc5ncsc5c4)CC3)sc2c1 | 10 | 7 | -1.6 | -3 | 45% | -1.0 | 3 | -2.0 | 2.2 | 2
Cc1nn(CC2CC2)c(=O)n1-c1ccccc1 | 4 | 1 | 0.2 | -11 | -6% | -0.1 | -7 | 2.4 | 0.1 | 33
O=C1CCCCCC1C1(O)C(=O)Nc2ccc(Br)cc21 (stereo unspecified) | / | / | / | -10 | -11% | -0.2 | -8 | 2.1 | / | -20
CCSc1nnc(N(CCC#N)CCC#N)s1 | / | / | / | 3 | -3% | 0.4 | -5 | 3.0 | / | -6
Cc1nnc(NC(=O)CCSc2ccc(Cl)cc2)s1 | 13 | 13 | 2.2 | -5 | / | 0.5 | 8 | -1.9 | -2.0 | -2
C=CCN(CC=C)C(=O)Nc1cc(OC)ccc1OC | -2 | -3 | -1.8 | -1 | -5% | 1.2 | -1 | -2.9 | -7.5 | -9
COCCCN=CC1=C(O)CC(c2ccccc2)CC1=O (stereo unspecified) | 11 | 16 | -1.7 | -10 | -4% | 1.0 | 2 | 5.7 | -7.5 | 33
COc1cc(F)c(S(=O)(=O)N2CCOc3ccccc32)cc1OC | -11 | -11 | 1.8 | 0 | 2% | -0.3 | 3 | -1.0 | -0.5 | -4
CC(C)N(C(=O)CSc1nnc(NC(=O)c2cccs2)s1)C(C)C | / | / | / | -3 | 1% | 0.5 | 1 | 3.0 | / | 10
CCOC(=O)c1sc(NC(=S)NC(=O)c2ccccc2)nc1C | 4 | 3 | -12 | 3 | -12% | 0.4 | 6 | 0.5 | -2.1 | 20
CCCn1c(C)cc(C(=O)COC(=O)c2c(C)nn(-c3ccccc3)c2C)c1C | / | / | / | 3 | 14% | -0.1 | 21 | 8.3 | / | 4
CCOC(=O)c1cc(NC(=O)c2cccnc2)ccn1 | 4 | -6 | -3.3 | -7 | / | -1.5 | -20 | -2.8 | -25 | -5
O=C(C1CCN(c2nc(-c3ccccc3)nc3c2CCC3)CC1)N1CCC(O)CC1 | -5 | -15 | -1.5 | -2 | / | -0.8 | -6 | 5.0 | -0.8 | 9
O=C(CN1C(=O)NC2(CCCC2)C1=O)Nc1cc(Cl)ccc1Oc1ccccc1 | -5 | 6 | -3.5 | -7 | 1% | -0.3 | / | / | -2.7 | /

New compounds follow.
SMILES | rRNA inh HTS | rRNA inh HTS OD600 | rRNA inh HTS RFP | Beta cell apopt | Vif TR-FRET | A1 inh | T cruzi inh | RanGTP-Imp inh | AF4-AF9 inh | Calb FLC
Cc1nc2c(=O)n(-c3cccc(C(F)(F)F)c3)nc(C)c2s1 | 0 | -7 | 0.1 | 0 | ? | 0.6 | 0 | -3.4 | 0.3 | -4
CCCCOc1cccc(C2C(C(=O)c3ccc(C)o3)=C(O)C(=O)N2Cc2ccco2)c1 (stereo unspecified) | 6 | 12 | 4.9 | -1 | / | -2.1 | / | / | -0.1 | 79*
Cc1ccc(CNC(=O)c2cn(C3CCCCC3)c(=O)c3c2c2ccccc2n3C)o1 | / | / | / | 4 | 1% | -0.5 | 16 | -2.5 | / | 9
COc1ccc(OCc2nnc3n2N=C(c2ccccc2)C(CC(=O)O)S3)cc1 (stereo unspecified) | 4 | 10 | -0.7 | -8 | / | 0.7 | -3 | -0.4 | -4.2 | -7
C/C(Cl)=C/Cn1c(N2CCCC2)nc2c1c(=O)[nH]c(=O)n2C | 1 | 4 | 0.0 | / | / | -0.5 | -18 | -0.9 | -1.1 | -6
CCOC(=O)CSc1nc(N(C)C)nc(N(C)C#N)n1 | / | / | / | -2 | 11% | 0.2 | 12 | -4.1 | / | -1
CCOc1c(Nc2ccccc2O)c(=O)c1=O | 19 | 10 | 14 | -8 | -5% | -0.7 | 2 | -3.9 | -2.6 | 2
CC(=O)Nc1cccc(C(=O)OC(C)C(=O)Nc2ccc(S(=O)(=O)N3CCCC3)cc2)c1 (stereo unspecified) | -3 | -11 | -1.0 | 6 | / | -0.3 | 6 | -1.7 | -0.7 | 1
O=C(COc1ccccc1Cl)Nc1nc(-c2ccncc2)cs1 | -20* | -9.1* | 6.2* | 1 | -3% | -1.4 | / | / | -0.2 | /
c1coc(CNc2ncnc3nc[nH]c23)c1 | / | / | / | 5 | 33% | 1.0 | -3 | 5.8 | 4.3 | -10

Screening data deposited in PubChem by several laboratories.
